HSV augment = HSV replication enhancement | actives 0.005% (n = 220,000) | maximum fold increase | HSV replication augmentation in cells, fold increase;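 active = peak rise of 1.5-fold or more in the series; tested in PC3 cells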;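 also: first round at 10 µM; read as green reporter fluorescence; hits show the peak of a series up to 25 µM; 1 = signal of infected wells without compound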
INS promoter inh = TRM-6 insulin promoter activity inhibition; TRM-6 cells (human fetal islet line), insulin promoter-eGFP reporter, imaging; reporter expression induced with tamoxifen; inhibition, % at 2 µM; actives 0.9% (n = 130,000); AID 1273;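 active = inhibition above the mean plus 3 SD, with well images judged a real hit on visual review, cut at about 60% in these data, passing the limit was not always enough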
PKD1 inh = blocks activity of human protein kinase D1; inhibition, %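 (about 10 µM by stock and volumes)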; Q15139; PKD1 kinase fluorescence polarization assay; AID 797; actives 0.056% (n = 200,000);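 active = inhibition of 50% or more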;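 also: controls were vehicle for no effect and a reference inhibitor for full effect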
GALR2 agonist = agonists of human galanin receptor 2 (GALR2); O43603; GALR2-expressing cells, agonist activation read-out; activation, %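 (tested at 5 µM)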; actives 0.48% (n = 140,000); AID 803;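 active = above mean plus 3 SD of all compounds, about 5% in these data, not always enough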;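 also: 0% = vehicle buffer wells and 100% = reference agonist at full effect; tested in CHO reporter cells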
Target sequence (O43603 whole entry, looked up): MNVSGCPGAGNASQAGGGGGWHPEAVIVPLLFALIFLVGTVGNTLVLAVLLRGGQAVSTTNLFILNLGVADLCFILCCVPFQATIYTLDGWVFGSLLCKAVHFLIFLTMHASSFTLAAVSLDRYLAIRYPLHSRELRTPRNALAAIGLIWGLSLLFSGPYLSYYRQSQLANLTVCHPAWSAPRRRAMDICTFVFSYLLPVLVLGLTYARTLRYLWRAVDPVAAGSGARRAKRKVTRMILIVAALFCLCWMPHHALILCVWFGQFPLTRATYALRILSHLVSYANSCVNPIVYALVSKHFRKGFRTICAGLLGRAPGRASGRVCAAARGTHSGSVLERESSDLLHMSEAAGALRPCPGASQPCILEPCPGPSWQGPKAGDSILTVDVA
RGS16-Gao = RGS16-Galphao interaction regulator (human); AID 1441; actives 0.38% (n = 220,000); binding response (% of control), % at 10 µM; bead-based flow cytometry RGS16-Galphao binding, fluorescence; actives lie on both sides;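 active = below 25% or above 175%, edge rows of some plates excepted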;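 also: Galphao activated by GDP with aluminum fluoride before binding; 100% = wells without compound and 0% = beads without RGS; some results beyond the cut were filed as inactive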
Target sequence (O15492 whole entry, looked up): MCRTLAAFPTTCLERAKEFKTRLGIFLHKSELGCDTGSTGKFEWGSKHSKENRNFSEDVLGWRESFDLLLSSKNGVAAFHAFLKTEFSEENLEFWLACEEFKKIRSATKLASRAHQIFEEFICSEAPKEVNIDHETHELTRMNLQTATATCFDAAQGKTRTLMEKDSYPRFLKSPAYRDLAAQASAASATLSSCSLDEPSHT
Target sequence (P09471 whole entry, looked up): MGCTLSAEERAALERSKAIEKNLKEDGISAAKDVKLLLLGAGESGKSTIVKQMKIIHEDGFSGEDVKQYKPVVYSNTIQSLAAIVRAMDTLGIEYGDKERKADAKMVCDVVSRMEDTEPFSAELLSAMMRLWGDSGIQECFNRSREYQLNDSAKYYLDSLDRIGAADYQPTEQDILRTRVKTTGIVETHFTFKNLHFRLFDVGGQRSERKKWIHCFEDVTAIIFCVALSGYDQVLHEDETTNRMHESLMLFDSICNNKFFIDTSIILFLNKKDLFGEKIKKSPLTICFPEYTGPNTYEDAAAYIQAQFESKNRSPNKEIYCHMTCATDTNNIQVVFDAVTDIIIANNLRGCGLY
INS promoter inh cell count = also measured in INS promoter inh; calls as there; normalized cell count, %; measured here: cell count, toxicity; reference of the scale not given here;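 cells exposed to compound for 48 h; stained nuclei by imaging scaled within each plate; lower means fewer cells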
HSV augment primary fold = further read-out of HSV augment, marked with its call; fold increase; compound at 10 µM; measured here: primary screen fold increase 10 uM; tested in PC3 cells;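 GFP signal in the first replicate; 1 = infected wells without compound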
* hit, by the source's call; i = inactive; x = not tested or not shown.

SMILES	HSV augment	HSV augment primary fold	INS promoter inh	INS promoter inh cell count	PKD1 inh	GALR2 agonist	RGS16-Gao
CCCCCn1c(NCc2ccco2)nc2ccccc21	i	0.9	x	x	7	-0.6	106
CN(Cc1cccs1)C(=O)CCc1ccc(S(=O)(=O)N2CCOCC2)cc1	i	1	-32	56	-4	-2.2	97
COc1ccccc1-c1ccc(SCc2ccc([N+](=O)[O-])cc2)nn1	i	1.1	20	97	0	x	96
COc1ccc2nc(CC(C)(C)CC(=O)O)c[n+]([O-])c2c1	i	0.89	3	111	-12	-0.4	101
CCN(CC)C(=O)CSc1nc2ccccc2c(=O)[nH]1	i	1	-271	116	-7	-1.1	104
CC(C)=CC(=O)OCC(=O)NC1CCCc2ccccc21 (stereo unspecified)	i	0.99	5	94	1	x	102
CCC(C)NC(=O)c1cn(CC)c2ccc(S(=O)(=O)N(C)C)cc2c1=O (stereo unspecified)	i	1.1	x	x	-3	-2.4	110
Cc1cc(=O)[nH]c(SCC2(O)C3CC4CC(C3)CC2C4)n1 (stereo unspecified)	i	0.83	x	x	1	-1.4	101
COc1ccc(S(=O)(=O)NC2CCCC2)c(Cl)c1Cl	i	0.83	-57	98	2	-4.3	89
O=C(Nc1cccc([N+](=O)[O-])c1)c1ccc2c(c1)OCO2	i	1	-19	119	4	-0.3	108
CC12CN3CC(=O)N4CC5(C)CN(CC(C)(C4)C5=O)C(=O)CN(C1)CC(C)(C3)C2=O	i	0.93	-7	108	1	-1.5	101
S=C1N(c2ccccc2)C(c2ccc(Cl)cc2)N2CCCN12 (stereo unspecified)	i	1.1	-69	60	6	0.3	110
O=C(CS(=O)(=O)c1ccc(Cl)cc1)NCCS(=O)(=O)c1ccc(Cl)cc1	i	0.94	-60	70	-6	x	125
CN(Cc1ccccc1)S(=O)(=O)c1ccc(OCC(=O)N2CCOCC2)cc1	i	0.82	23	146	0	-0.2	109
Cc1cc(S(=O)(=O)NC2CCCCC2)ccc1OCC(=O)N1CCOCC1	i	1.1	-62	84	-1	-0.9	105
N#Cc1cc2c(nc1Cl)CCCC2	i	1.1	27	94	-21	-1.5	104
CN1CCN(C(=O)c2c(NC(=O)c3ccco3)sc3c2CCC(C(C)(C)C)C3)CC1 (stereo unspecified)	i	0.88	x	x	4	-0.1	104
COC(=O)C1=C(C)NC(=O)CC1c1cccc(Cl)c1Cl (stereo unspecified)	i	0.91	x	x	-4	-0.8	81
Clc1ccc2oc(-c3ccccc3)cc(=NCCCN3CCOCC3)c2c1	i	1	-321	68	-4	x	114
Cc1cccc(-c2nnc(SCc3ccc(C#N)cc3)n2Cc2ccco2)c1	i	1	-9	103	-6	2.4	90
O=C1/C(=C/c2ccc(O)c(O)c2)SC(=S)N1Nc1ccccc1	x	x	x	x	2	x	90
Cc1ccc(OCCNS(=O)(=O)c2cccs2)cc1	i	0.9	x	x	-13	-3.3	157
COc1ccc(CC(=O)Nc2ccc(-c3nnc(-c4ccc(C)cc4)o3)cc2)cc1	x	x	-18	104	-4	-0.4	96
CN(C)CCn1c(=S)[nH]c2ccc(Cl)cc2c1=O	i	1.1	x	x	2	x	100
COc1ccc(C(=O)Nc2cccc(C)c2)cc1S(=O)(=O)N1CCOCC1	i	0.69	0	115	-11	-1.8	104
COC(=O)N/N=C/c1cc(Cl)cc(Cl)c1OCc1ccccc1	i	0.95	35	105	-3	0.8	111
c1ccc(Cn2nnnc2CN2CCCC2)cc1	i	0.94	-9	72	1	-1.1	98
Cc1cc(C)c(NC(=O)CSc2nc3[nH]ncc3c(=O)[nH]2)c(C)c1	i	0.79	x	x	-2	x	103
COCC(C)NS(=O)(=O)c1ccccc1 (stereo unspecified)	i	1.1	x	x	-4	x	101
CCOc1ccc(OCc2nnc(SCC(=O)NC3CCS(=O)(=O)C3)n2-c2ccc(Cl)cc2)cc1 (stereo unspecified)	i	1	12	74	0	-0.2	98
Cc1ccc(Cl)c2c1=NC(=O)C=2c1[nH]c(=S)[nH]c1O	i	0.93	x	x	3	x	101
O=C(CCSCc1ccccc1F)NCCc1ccccc1	i	1.1	50	78	-1	x	114
CCOc1ccc(C(=O)NC2CCN(S(=O)(=O)CC)CC2)cc1	i	0.88	x	x	-7	-1.4	102
N#Cc1c(N)n(CCOC(=O)c2cccc([N+](=O)[O-])c2)c2nc3ccccc3nc12	i	0.88	2	128	-1	1.2	101
COc1ccccc1-n1c(-c2cccnc2)n[nH]c1=S	i	0.89	-1	310	-2	-0.9	38
Cc1cccc(NC(=O)COC(=O)c2ccc3c(c2)OCO3)c1C	i	0.9	x	x	-1	x	101
Cc1nn(-c2ccccc2)c(C)c1NS(=O)(=O)c1ccccc1	i	1.3	x	x	-5	-1.0	101
Cc1cccc(S(=O)(=O)N/N=c2\sc3ccccc3n2C)c1	i	1	x	x	-1	x	84
COc1ccccc1Cn1cccc1C=O	i	1	x	x	-3	x	115
C=CCNC(=O)NC(=O)COC(=O)C(C)Oc1ccc(Cl)cc1Cl (stereo unspecified)	i	1	62	82	4	x	102
COCCCn1c(SCC(=O)Nc2ccc(C(=O)OC)cc2)nc2ccccc2c1=O	i	0.91	x	x	-20	-2.6	106
COC(=O)c1c(NC(=O)C2CCC2)sc(C(=O)N(C)C)c1C	i	0.98	-35	90	-6	-0.3	99
O=[N+]([O-])c1cc(C(F)(F)F)ccc1NCCNC(=S)Nc1ccc(Cl)cc1	i	0.86	-7	114	-9	-2.6	103
COc1nc(N(C)S(=O)(=O)c2ccc(C)cc2)nc(C)c1Cl	i	1.3	-15	93	-4	-0.3	108
Cc1cccc(N=Cc2cc(Br)cc(Cl)c2O)c1	i	1.2	-73	154	-1	x	102

Part of the list above in order of formula weight, high to low.
SMILES	HSV augment	HSV augment primary fold	INS promoter inh	INS promoter inh cell count	PKD1 inh	GALR2 agonist	RGS16-Gao
COc1ccc(C(=O)Nc2cccc(C)c2)cc1S(=O)(=O)N1CCOCC1	i	0.69	0	115	-11	-1.8	104
O=C1/C(=C/c2ccc(O)c(O)c2)SC(=S)N1Nc1ccccc1	x	x	x	x	2	x	90
Cc1ccc(Cl)c2c1=NC(=O)C=2c1[nH]c(=S)[nH]c1O	i	0.93	x	x	3	x	101

The listing continues:
SMILES	HSV augment	HSV augment primary fold	INS promoter inh	INS promoter inh cell count	PKD1 inh	GALR2 agonist	RGS16-Gao
CCCCP(=O)(CCCC)Cc1ccccc1	i	0.95	-253	89	-8	-1.4	102
Cc1ccccc1NC(=O)C1CCCN(S(=O)(=O)c2cccc3cccnc23)C1 (stereo unspecified)	i	1.2	x	x	1	-1.9	102
CCOC(=O)c1cccc(NC(=O)C2CCCN2S(=O)(=O)c2cccc3cccnc23)c1 (stereo unspecified)	i	0.78	x	x	-1	-1.7	94
COc1ccc(OC)c(NC(=O)c2ccc(OC3CSC3)cc2)c1	i	0.95	31	71	-4	x	96
Cc1onc(-c2ccccc2)c1C(=O)Nc1ccc(S(=O)(=O)NC(C)(C)C)cc1	i	1.1	x	x	0	x	113
O=C(/C=C/c1ccc(Br)cc1)N1CCN(c2cccc(C(F)(F)F)c2)CC1	i	1.1	x	x	13	-1.2	105
O=S(=O)(c1ccc(Cl)cc1)N1CCSC1c1ccco1 (stereo unspecified)	i	0.93	3	111	-3	-3.7	97
CC(=O)N1N=C(c2ccc(C)cc2)OC1c1ccc(Br)cc1 (stereo unspecified)	i	0.77	50	152	0	x	101
O=C(Cc1c[nH]c2ccccc12)Nc1cccc(S(=O)(=O)N2CCCCC2)c1	i	0.99	x	x	3	x	98
COc1ccc(-c2nc(C#N)c(NCc3ccc(F)cc3)o2)cc1OC	i	0.91	57	123	6	-0.6	97
C=CCN1C(=O)C(O)(CC(=O)c2ccccc2)c2ccccc21 (stereo unspecified)	i	0.81	x	x	-11	-2.1	88
Cn1ccc(NC(=O)Nc2ccc(Cl)cc2Cl)n1	i	1	33	80	-9	-1.4	104
O=C1NCCN(Cc2ccc(F)cc2)C1CC(=O)N1CC=C(c2ccccc2)CC1 (stereo unspecified)	i	0.96	x	x	x	x	113
COc1ccc(C=Nc2cccc3ncccc23)cc1	i	1.1	50	72	-5	x	110
CC(C)OC(=O)C(=O)NNc1ccccc1	i	1.1	-6	81	0	-1.6	113

At a glance, 21 of the compounds above.
SMILES	HSV augment	HSV augment primary fold	INS promoter inh	INS promoter inh cell count	PKD1 inh	GALR2 agonist	RGS16-Gao
Cc1nn(-c2ccccc2)c(C)c1NS(=O)(=O)c1ccccc1	i	1.3	x	x	-5	-1.0	101
Cc1cccc(S(=O)(=O)N/N=c2\sc3ccccc3n2C)c1	i	1	x	x	-1	x	84
COc1ccccc1Cn1cccc1C=O	i	1	x	x	-3	x	115
C=CCNC(=O)NC(=O)COC(=O)C(C)Oc1ccc(Cl)cc1Cl (stereo unspecified)	i	1	62	82	4	x	102
COCCCn1c(SCC(=O)Nc2ccc(C(=O)OC)cc2)nc2ccccc2c1=O	i	0.91	x	x	-20	-2.6	106
COC(=O)c1c(NC(=O)C2CCC2)sc(C(=O)N(C)C)c1C	i	0.98	-35	90	-6	-0.3	99
O=[N+]([O-])c1cc(C(F)(F)F)ccc1NCCNC(=S)Nc1ccc(Cl)cc1	i	0.86	-7	114	-9	-2.6	103
COc1nc(N(C)S(=O)(=O)c2ccc(C)cc2)nc(C)c1Cl	i	1.3	-15	93	-4	-0.3	108
Cc1cccc(N=Cc2cc(Br)cc(Cl)c2O)c1	i	1.2	-73	154	-1	x	102
CCCCP(=O)(CCCC)Cc1ccccc1	i	0.95	-253	89	-8	-1.4	102
Cc1ccccc1NC(=O)C1CCCN(S(=O)(=O)c2cccc3cccnc23)C1 (stereo unspecified)	i	1.2	x	x	1	-1.9	102
CCOC(=O)c1cccc(NC(=O)C2CCCN2S(=O)(=O)c2cccc3cccnc23)c1 (stereo unspecified)	i	0.78	x	x	-1	-1.7	94
COc1ccc(OC)c(NC(=O)c2ccc(OC3CSC3)cc2)c1	i	0.95	31	71	-4	x	96
Cc1onc(-c2ccccc2)c1C(=O)Nc1ccc(S(=O)(=O)NC(C)(C)C)cc1	i	1.1	x	x	0	x	113
O=C(/C=C/c1ccc(Br)cc1)N1CCN(c2cccc(C(F)(F)F)c2)CC1	i	1.1	x	x	13	-1.2	105
O=S(=O)(c1ccc(Cl)cc1)N1CCSC1c1ccco1 (stereo unspecified)	i	0.93	3	111	-3	-3.7	97
CC(=O)N1N=C(c2ccc(C)cc2)OC1c1ccc(Br)cc1 (stereo unspecified)	i	0.77	50	152	0	x	101
O=C(Cc1c[nH]c2ccccc12)Nc1cccc(S(=O)(=O)N2CCCCC2)c1	i	0.99	x	x	3	x	98
COc1ccc(-c2nc(C#N)c(NCc3ccc(F)cc3)o2)cc1OC	i	0.91	57	123	6	-0.6	97
C=CCN1C(=O)C(O)(CC(=O)c2ccccc2)c2ccccc21 (stereo unspecified)	i	0.81	x	x	-11	-2.1	88
Cn1ccc(NC(=O)Nc2ccc(Cl)cc2Cl)n1	i	1	33	80	-9	-1.4	104

Continued:
SMILES	HSV augment	HSV augment primary fold	INS promoter inh	INS promoter inh cell count	PKD1 inh	GALR2 agonist	RGS16-Gao
CC(C)(C)NC(=O)C(c1ccco1)N(C(=O)c1csnn1)c1ccccc1 (stereo unspecified)	i	0.71	x	x	-8	-1.8	94
COc1cc(C2Nc3ccc4ncccc4c3C3=C2C(=O)CC(C)(C)C3)cc(OC)c1O (stereo unspecified)	i	1.1	30	116	-4	-0.6	222
CSc1nc(N)c2c(n1)OC(N)=C(C#N)C2c1cccnc1 (stereo unspecified)	i	1.1	-64	112	0	x	99
CC(C)(C)c1ccc(S(=O)(=O)NCC(=O)Nc2sc3c(c2C(N)=O)CCCC3)cc1	i	0.99	-23	103	-8	-2.6	112
O=C(COC(=O)CN1C(=O)c2ccccc2C1=O)Nc1ncc(Cl)cc1Cl	x	x	x	x	-2	-1.1	99
COc1ccc(Nc2ncnc3scc(-c4ccc(OC)cc4)c23)cc1	i	0.7	-4	99	-5	-0.4	103
COC(=O)NNC(=O)c1ccc(C)cc1	i	1	33	168	4	-1.2	109
O=C(Nc1ccccc1)c1ccc(Cn2cc(C(F)(F)F)ccc2=O)cc1	i	0.85	18	130	9	-0.3	102
Cc1ccc(NC2=NCC(=O)N2Cc2ccccc2)c(C)c1	i	0.93	-92	55	-1	0.5	104
Cc1ccc(NC(=S)NCC2CCN(C(C)c3ccccc3)C2)cc1C (stereo unspecified)	i	0.86	x	x	-4	x	95
Cc1ccccc1SCCNC(=O)CCc1ccccc1	i	1	x	x	-4	x	102

Bioassay records from PubChem.
